GIV-Gai inh – inhibitors of GIV GBA-motif binding to rat Galpha-i3; percent of control (FP), % (no concentration beside the values); AID 1224905; 0.42% of 210,000 active; P08753; Galpha-i3/FITC-GIV peptide fluorescence polarization, 90 min; hits give low values; scaled: aluminum fluoride 0%, vehicle 100%;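 active means replicate mean at 85% of control or lower, very high polarization wells dropped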;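 further: wells of about 15 µL received 100 nL stock; the first replicate is given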
Target sequence (P08753 whole entry, looked up): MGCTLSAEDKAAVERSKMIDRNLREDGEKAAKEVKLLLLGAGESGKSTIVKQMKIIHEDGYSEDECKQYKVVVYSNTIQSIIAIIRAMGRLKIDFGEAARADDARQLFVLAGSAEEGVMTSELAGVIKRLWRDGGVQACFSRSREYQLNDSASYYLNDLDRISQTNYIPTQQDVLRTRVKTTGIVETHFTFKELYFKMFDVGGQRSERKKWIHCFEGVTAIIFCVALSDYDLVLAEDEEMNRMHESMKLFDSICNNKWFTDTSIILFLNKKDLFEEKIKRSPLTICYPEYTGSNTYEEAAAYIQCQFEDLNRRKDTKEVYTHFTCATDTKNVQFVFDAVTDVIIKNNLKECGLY
HCMV NEC inh – disrupts HCMV UL50-UL53 complex binding. HTRF UL50-UL53 interaction, normalized percent inhibition. inhibition, % (concentration not given with the values). 0.15% of 190,000 active. AID 1918969;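 active means both replicates at 50% or more, plus weaker picks with an unusually low signal ratio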;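 further: stock transfer was 100 nL into about 20 µL; 0% = negative control wells and 100% = wells with untagged competitor protein; inactives centre near -12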
Sa growth inh – blocks Staphylococcus aureus growth; S. aureus RN4220 growth, OD600, 20 h, 42 °C; hits give low values; relative growth, % (test concentration not listed); 0.53% of 170,000 active;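 active means growth at 42 °C up to 50% and 20 or more points under that at 30 °C, or under 10% at both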;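 further: 300 nL library stock went into each well; scaled to the means of positive and negative controls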
Sa growth inh second temp – second read-out of Sa growth inh, no call of its own (marks repeat the call); relative growth, %; measured here: growth at 30 °C;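 optical density after 20 h as mean of two plates; 100% = untreated growth and lower means inhibition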
* = called active by the depositor; & = joins results of further samples.

What do the screens show for `COc1ccc(Cl)cc1NC(=O)c1sc(=S)n(C)c1N`?
HCMV NEC inh: -12; Sa growth inh: 90; Sa growth inh second temp: 97

How did COc1ccccc1C1CCN(C(=O)c2scc(S(=O)(=O)c3ccc(Cl)cc3)c2C)CC1 do in these assays?
GIV-Gai inh: 95; HCMV NEC inh: -13; Sa growth inh: 116; Sa growth inh second temp: 94

What do the screens show for `Cc1cccc(N2CCN(CCNC(=O)Cn3ncc4c5ccccc5n(C)c4c3=O)CC2)c1C`?
GIV-Gai inh: 104; HCMV NEC inh: -12; Sa growth inh: 88; Sa growth inh second temp: 90

Results for N#Cc1cccc(Nc2ncnc3c2cnn3-c2cccc(Cl)c2)c1 ?
GIV-Gai inh: 107; Sa growth inh: 119; Sa growth inh second temp: 89

How did Cc1cc(OCC(=O)Nc2nnn(C)n2)ccc1Cl do in these assays?
HCMV NEC inh: 2; Sa growth inh: 96; Sa growth inh second temp: 105

What do the screens show for `CC(=O)c1cccc(NC(=O)C(C)n2c(=O)cc(C)c3c(C)nn(-c4ccccc4)c32)c1` (configuration not stated)?
GIV-Gai inh: 105; Sa growth inh: 106; Sa growth inh second temp: 93

Results for CN(C)CCCN1C(=O)C2C3C=CC(C3)C2C1=O (configuration not stated) ?
GIV-Gai inh: 96; Sa growth inh: 84; Sa growth inh second temp: 85

How did O=C(CN1CCc2ccccc21)Nc1cccc(F)c1 do in these assays?
HCMV NEC inh: -13; Sa growth inh: 96; Sa growth inh second temp: 86

How did O=c1[nH]nc(CSc2ccc(Cl)cc2)c2ccccc12 do in these assays?
GIV-Gai inh: 106; HCMV NEC inh: -1; Sa growth inh: 107; Sa growth inh second temp: 89

What do the screens show for `CC(C)n1nnnc1SCC(=O)c1ccc(F)cc1`?
GIV-Gai inh: 100; HCMV NEC inh: 5; Sa growth inh: 111; Sa growth inh second temp: 85

Results for O=c1/c(=C/C2=Cc3ccccc3OC2)sc2nc3ccccc3n12 ?
GIV-Gai inh: 113; HCMV NEC inh: 0; Sa growth inh: 108; Sa growth inh second temp: 98

What do the screens show for `NC1=NC2(CCCCC2)n2c(nc3ccccc32)N1`?
GIV-Gai inh: 102; HCMV NEC inh: -14&14; Sa growth inh: 96&86; Sa growth inh second temp: 84&99

What do the screens show for `COc1ccc2c(c1)c(=O)oc1cc(O)ccc12`?
GIV-Gai inh: 100; Sa growth inh: 101; Sa growth inh second temp: 85

Results for Cc1ccc(C)n1-c1ccc(S(N)(=O)=O)cc1 ?
GIV-Gai inh: 130; HCMV NEC inh: 6; Sa growth inh: 104; Sa growth inh second temp: 91

What do the screens show for `CC(C)[C@@H]1CC[C@@H](C)C[C@@H]1OC(=O)C(O)C(O)C(=O)O[C@H]1C[C@H](C)CC[C@H]1C(C)C` (some centres not stated)?
HCMV NEC inh: -8; Sa growth inh: 70; Sa growth inh second temp: 70

Results for CC(C)C(=O)Nc1ccccc1OCc1cc(=O)n2ccccc2n1 ?
GIV-Gai inh: 113; Sa growth inh: 114; Sa growth inh second temp: 99

What do the screens show for `CCN1CCN(c2cc3c(cc2F)c(=O)c(S(=O)(=O)c2ccccc2)cn3C)CC1`?
GIV-Gai inh: 104&102; HCMV NEC inh: -12; Sa growth inh: 121; Sa growth inh second temp: 84

What do the screens show for `CN(Cc1ccccc1)C(=O)COc1ccc(S(=O)(=O)N2CCCC2)cc1`?
GIV-Gai inh: 106; HCMV NEC inh: -2; Sa growth inh: 110; Sa growth inh second temp: 82

Results for Cc1cc(C)cc(NC(=O)CN(c2cccc(C)c2C)S(=O)(=O)c2ccccc2)c1 ?
GIV-Gai inh: 101; HCMV NEC inh: -32; Sa growth inh: 94; Sa growth inh second temp: 82

Results for C=CCSC1=N/C(=C\c2ccsc2)C(=O)S1 ?
GIV-Gai inh: 101; HCMV NEC inh: -26; Sa growth inh: 105; Sa growth inh second temp: 85

What do the screens show for `Cc1noc2c1C(c1ccc(C(C)C)cc1)C1=C(CC(c3ccccc3O)CC1=O)N2` (configuration not stated)?
GIV-Gai inh: 98; HCMV NEC inh: 2

What do the screens show for `COc1ccccc1C/C(N)=N/O`?
GIV-Gai inh: 103; HCMV NEC inh: -5; Sa growth inh: 115; Sa growth inh second temp: 96

How did CCOP(C)(=O)C1(C(=O)OCc2ccccc2)CC1 (configuration not stated) do in these assays?
GIV-Gai inh: 105; HCMV NEC inh: 2; Sa growth inh: 109; Sa growth inh second temp: 109

How did O=C(NCC1CC1)c1ccccc1NC(=O)c1cc2ccccc2oc1=O do in these assays?
GIV-Gai inh: 104; Sa growth inh: 87; Sa growth inh second temp: 98

How did CC(NS(=O)(=O)c1ccccc1)C(=O)Nc1ccccc1F (configuration not stated) do in these assays?
GIV-Gai inh: 110; HCMV NEC inh: 9; Sa growth inh: 85; Sa growth inh second temp: 103

What do the screens show for `CCn1cc(CCCC(=O)N2CCCC2)c2ccccc21`?
GIV-Gai inh: 106; Sa growth inh: 102; Sa growth inh second temp: 87

How did Cc1cccc(NC(=O)C2(N3CCC3=O)CCCCC2)c1 do in these assays?
GIV-Gai inh: 110; HCMV NEC inh: -8; Sa growth inh: 78; Sa growth inh second temp: 87

Results for COc1ccc(S(=O)(=O)N(CC(=O)NCC2CCCO2)c2ccc(C)cc2)cc1OC (configuration not stated) ?
GIV-Gai inh: 111; HCMV NEC inh: 10; Sa growth inh: 100; Sa growth inh second temp: 96

Results for O=C(NC1CCCC1)c1cc(Nc2cccc(C(F)(F)F)c2)nc2ccccc12 ?
GIV-Gai inh: 105; Sa growth inh: 95; Sa growth inh second temp: 101

How did CCN1C(=O)N(CC)C2C1N(C)C(=O)N2C(C)(C)C (configuration not stated) do in these assays?
GIV-Gai inh: 104; Sa growth inh: 104; Sa growth inh second temp: 94

What do the screens show for `Cc1ccc2nc(N3CCN(C(=O)C(C)(C)C)CC3)c(-c3noc(-c4ccccc4)n3)cc2c1`?
GIV-Gai inh: 106; HCMV NEC inh: -19

What do the screens show for `CCC(Sc1nc2cc3c(cc2c(=O)n1Cc1ccc(OC)cc1)OCO3)C(=O)N1CCCC1` (configuration not stated)?
GIV-Gai inh: 96; HCMV NEC inh: 0; Sa growth inh: 81; Sa growth inh second temp: 77

Results for Nc1nccc(-c2ccc3c(c2)OCCO3)n1 ?
GIV-Gai inh: 112; HCMV NEC inh: 5; Sa growth inh: 114; Sa growth inh second temp: 101

What do the screens show for `NC(=O)c1ccccc1NC(=O)c1cc(-c2ccccc2)nc2ccccc12`?
GIV-Gai inh: 105; HCMV NEC inh: 2

How did COC(=O)c1c(N)sc2c1CCc1ccccc1-2 do in these assays?
GIV-Gai inh: 100; HCMV NEC inh: -32; Sa growth inh: 90; Sa growth inh second temp: 79

What do the screens show for `CCCCc1ccc(NC(=O)Cn2cnc3c2c(=O)n(C)c(=O)n3C)cc1`?
GIV-Gai inh: 113; HCMV NEC inh: -10; Sa growth inh: 98; Sa growth inh second temp: 99

How did COc1ccc(-c2coc3cc(OCC(=O)O)ccc3c2=O)cc1 do in these assays?
GIV-Gai inh: 95; HCMV NEC inh: -13

What do the screens show for `C=CCn1c(=O)c2ccc(C(=O)NC(C)C)cc2n2c(=O)[nH]nc12`?
GIV-Gai inh: 102; HCMV NEC inh: -36

How did COc1cccc(NC(=O)CSc2nc3c([nH]c4ccccc43)c(=O)n2-c2ccccc2)c1 do in these assays?
GIV-Gai inh: 98; Sa growth inh: 108; Sa growth inh second temp: 87

How did O=C1c2ccccc2C(=O)N1Cc1csc(-c2cccs2)n1 do in these assays?
GIV-Gai inh: 104; HCMV NEC inh: -16; Sa growth inh: 98; Sa growth inh second temp: 93

Next part; the last 2 above are carried over.
How did COc1cccc(NC(=O)CSc2nc3c([nH]c4ccccc43)c(=O)n2-c2ccccc2)c1 do in these assays?
GIV-Gai inh: 98; Sa growth inh: 108; Sa growth inh second temp: 87

How did O=C1c2ccccc2C(=O)N1Cc1csc(-c2cccs2)n1 do in these assays?
GIV-Gai inh: 104; HCMV NEC inh: -16; Sa growth inh: 98; Sa growth inh second temp: 93

What do the screens show for `CCOC(=O)c1c(/N=c2\oc3c(OC)cccc3cc2C(N)=O)sc2c1CCCC2`?
GIV-Gai inh: 103; HCMV NEC inh: -25

Results for COc1ccc(-c2noc(CC(=O)Nc3cccc(OC)c3)n2)cc1 ?
GIV-Gai inh: 100; Sa growth inh: 85; Sa growth inh second temp: 90

What do the screens show for `Cc1sc2nc3scc(CC(=O)NCCO)n3c(=O)c2c1C`?
GIV-Gai inh: 95; HCMV NEC inh: -7; Sa growth inh: 104; Sa growth inh second temp: 97

Results for CC1(C)Cc2cccc(OCC(O)CNCc3ccccc3)c2O1 (configuration not stated) ?
HCMV NEC inh: -1; Sa growth inh: 121; Sa growth inh second temp: 99

How did Cc1nc(SCC(=O)Nc2ccc(Br)cc2)[nH]c(=O)c1Cc1ccccc1 do in these assays?
GIV-Gai inh: 108; HCMV NEC inh: -26; Sa growth inh: 105; Sa growth inh second temp: 85

Results for COc1ccc(NC(=O)CSc2nnc(-c3ccncc3)o2)c(OC)c1 ?
GIV-Gai inh: 102; HCMV NEC inh: -34

How did CC(=O)N/C(=C\c1ccc(C#N)cc1)C(=O)O do in these assays?
GIV-Gai inh: 117; HCMV NEC inh: -12; Sa growth inh: 116; Sa growth inh second temp: 85

What do the screens show for `Cc1oc2ncnc(N3CCCC(C(=O)NCc4ccccc4Cl)C3)c2c1C` (configuration not stated)?
GIV-Gai inh: 99; HCMV NEC inh: -23

Results for COc1ccc(OC)c2c1CC(C)(C)N=C2SC ?
GIV-Gai inh: 97; Sa growth inh: 107; Sa growth inh second temp: 75

Results for Nc1c(C(=O)NC2CCCCC2)sc(=S)n1-c1ccccc1 ?
GIV-Gai inh: 101; HCMV NEC inh: -12; Sa growth inh: 86; Sa growth inh second temp: 91

Results for Cc1cccc(-n2nnc(-c3nc(-c4ccccc4C)no3)c2C)c1 ?
GIV-Gai inh: 109; HCMV NEC inh: 4

Results for CC(=O)Nc1nc2ccc(CCC(=O)NCC3CCN(Cc4ccc(C)cc4)CC3)cc2s1 ?
GIV-Gai inh: 99; HCMV NEC inh: -18

Results for O=C(CSC1=NC(=O)C(c2ccccc2)C(=O)N1)c1ccccc1 (configuration not stated) ?
GIV-Gai inh: 104; HCMV NEC inh: -8; Sa growth inh: 100; Sa growth inh second temp: 90

How did Cc1cc(/C=C/C(=O)N(C)CC2COc3ccccc3O2)c(C)n1Cc1ccco1 (configuration not stated) do in these assays?
HCMV NEC inh: 7; Sa growth inh: 116; Sa growth inh second temp: 100

How did NC(=S)Cc1nc(-c2ccccc2)cs1 do in these assays?
GIV-Gai inh: 114; HCMV NEC inh: -3; Sa growth inh: 70; Sa growth inh second temp: 41

Results for CCOC(=O)c1c[nH]c2c(C)cccc2c1=O ?
GIV-Gai inh: 108; HCMV NEC inh: -38; Sa growth inh: 86; Sa growth inh second temp: 76

How did Cc1ccc(/C=C2\SC(=S)N(C(C(=O)O)C(C)C)C2=O)cc1 (configuration not stated) do in these assays?
GIV-Gai inh: 103; Sa growth inh: 102; Sa growth inh second temp: 91

Results for Cc1cc2nc(NCC3COc4ccccc4O3)c3ccccc3n2n1 (configuration not stated) ?
HCMV NEC inh: 0; Sa growth inh: 72; Sa growth inh second temp: 56

How did Cc1cc(C)c2c(N)c(C(=O)c3ccccc3O)sc2n1 do in these assays?
GIV-Gai inh: 104; HCMV NEC inh: -28; Sa growth inh: 105; Sa growth inh second temp: 83

Results for COCCCN[C@H]1CS(=O)(=O)C[C@@H]1S(=O)(=O)c1ccc(OC)cc1 ?
GIV-Gai inh: 95; HCMV NEC inh: -20

Results for CC(C)C12CCCC(C(=O)O)(CCC1)C2 ?
HCMV NEC inh: 20; Sa growth inh: 113; Sa growth inh second temp: 116

What do the screens show for `CCc1nnc(NC(=O)Cn2ncc3c2-c2cc(C)ccc2OC3)s1`?
GIV-Gai inh: 103; HCMV NEC inh: -2; Sa growth inh: 105; Sa growth inh second temp: 78

In the list so far, these have a thiophene ring, fused or not.
How did COc1ccccc1C1CCN(C(=O)c2scc(S(=O)(=O)c3ccc(Cl)cc3)c2C)CC1 do in these assays?
GIV-Gai inh: 95; HCMV NEC inh: -13; Sa growth inh: 116; Sa growth inh second temp: 94

Results for C=CCSC1=N/C(=C\c2ccsc2)C(=O)S1 ?
GIV-Gai inh: 101; HCMV NEC inh: -26; Sa growth inh: 105; Sa growth inh second temp: 85

How did COC(=O)c1c(N)sc2c1CCc1ccccc1-2 do in these assays?
GIV-Gai inh: 100; HCMV NEC inh: -32; Sa growth inh: 90; Sa growth inh second temp: 79

How did O=C1c2ccccc2C(=O)N1Cc1csc(-c2cccs2)n1 do in these assays?
GIV-Gai inh: 104; HCMV NEC inh: -16; Sa growth inh: 98; Sa growth inh second temp: 93

What do the screens show for `CCOC(=O)c1c(/N=c2\oc3c(OC)cccc3cc2C(N)=O)sc2c1CCCC2`?
GIV-Gai inh: 103; HCMV NEC inh: -25

What do the screens show for `Cc1sc2nc3scc(CC(=O)NCCO)n3c(=O)c2c1C`?
GIV-Gai inh: 95; HCMV NEC inh: -7; Sa growth inh: 104; Sa growth inh second temp: 97

How did Cc1cc(C)c2c(N)c(C(=O)c3ccccc3O)sc2n1 do in these assays?
GIV-Gai inh: 104; HCMV NEC inh: -28; Sa growth inh: 105; Sa growth inh second temp: 83

Screening results (PubChem BioAssay)
